VDR inhibitor = Inhibitors of the vitamin D receptor (VDR): qHTS | 0.93% of 400,000 active | Vitamin D3 receptor (Homo sapiens), P11473 | AID 504847, 2011 | Potency, µM, without a hit: max response, negative = inhibition, actives largely listed as inhibitors | VDR-SRC2-3 peptide fluorescence polarization, 2 h; active = well fitted inhibition curve with a large enough effect; inconclusive = small, poorly fitted or top-dose-only effect, or another doubt; inactive = no such curve, though single readings can be large or run the other way; note: series mostly up to about 120 µM
Target sequence (P11473 whole entry, looked up): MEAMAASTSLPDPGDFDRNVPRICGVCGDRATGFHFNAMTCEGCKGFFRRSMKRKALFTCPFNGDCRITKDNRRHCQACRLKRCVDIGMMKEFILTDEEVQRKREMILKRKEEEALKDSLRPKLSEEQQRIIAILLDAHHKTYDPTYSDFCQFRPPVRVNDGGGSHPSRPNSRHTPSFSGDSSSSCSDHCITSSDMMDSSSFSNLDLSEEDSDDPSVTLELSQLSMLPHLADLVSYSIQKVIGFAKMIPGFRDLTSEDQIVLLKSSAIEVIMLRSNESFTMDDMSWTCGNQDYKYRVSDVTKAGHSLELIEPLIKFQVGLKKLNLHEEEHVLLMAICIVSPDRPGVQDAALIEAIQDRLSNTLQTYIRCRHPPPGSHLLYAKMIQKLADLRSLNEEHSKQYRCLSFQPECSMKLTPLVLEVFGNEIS
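Fluorescence polarization assay of small-molecule disruption of VDR binding to coregulator peptide SRC2-3. Compounds and controls pin-transferred, then read after 2 h incubation at ambient room temperature.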
The depositor's hits bear a star; ? = inconclusive; & = joins results of further samples. % is set by controls: 0 for no effect and ±100 for the full control effect; potency is the fitted concentration of half-maximal effect. A portion of the library, so the mix of outcomes need not match the whole.

The opening 15 entries as a preview:
VDR inhibitor	Molecule
1%	Cc1ccc(/C=N/Nc2ccc(C(=O)O)cc2)o1
-12%	CCc1ccc(-c2cc(C)no2)cc1S(=O)(=O)Nc1ccccn1
-2%	CC1(C)Cc2ccccc2-c2[nH]c(=S)[nH]c(=O)c21
-13%	C=CCOc1nc2c(c(=O)n(C)c(=O)n2C)n1Cc1ccc(Cl)cc1Cl
1%	COc1ccc(CCNC(=O)c2c(O)nc3cc(C)ccn3c2=O)cc1OC
2%	COc1ccc(C2NC(=O)c3ccccc3N2)cc1OC (stereo not given)
0%	COc1ccc(-n2nc(C(=O)NCC(=O)NCCCN3CC(C)CC(C)C3)c3ccccc3c2=O)cc1OC (stereo not given)
-16%	COc1ccc(CNc2nccs2)cc1OC
6%	C=CCNC(=O)COC(=O)c1ccc(Cl)c(S(N)(=O)=O)c1
-24%	O=C(c1cccc(S(=O)(=O)N2CCN(c3ccc(F)cc3)CC2)c1)N1CCCC(C(F)(F)F)C1 (stereo not given)
-24%	Cc1ccc2cc3c(NS(=O)(=O)c4cccc5nonc45)nn(CC(C)C)c3nc2c1
-9%	COc1cc2c(cc1OC)C(C(=O)NCc1ccco1)C(c1cccs1)N(C)C2=O (stereo not given)
4%	NS(=O)(=O)c1ccc(NS(=O)(=O)c2ccc(NC(=O)c3ccc(-c4ccccc4)cc3)cc2)cc1
16%	CCCC12CN(C(=O)c3ccc(OC)cc3)CC(C)(CN(C(=O)c3ccc(OC)cc3)C1)C2=O
9%	Cc1ccccc1NC(C)C(=O)N/N=C/c1c[nH]c2ccccc12 (stereo not given)

All compounds of this part, from the start:
VDR inhibitor	Molecule
1%	Cc1ccc(/C=N/Nc2ccc(C(=O)O)cc2)o1
-12%	CCc1ccc(-c2cc(C)no2)cc1S(=O)(=O)Nc1ccccn1
-2%	CC1(C)Cc2ccccc2-c2[nH]c(=S)[nH]c(=O)c21
-13%	C=CCOc1nc2c(c(=O)n(C)c(=O)n2C)n1Cc1ccc(Cl)cc1Cl
1%	COc1ccc(CCNC(=O)c2c(O)nc3cc(C)ccn3c2=O)cc1OC
2%	COc1ccc(C2NC(=O)c3ccccc3N2)cc1OC (stereo not given)
0%	COc1ccc(-n2nc(C(=O)NCC(=O)NCCCN3CC(C)CC(C)C3)c3ccccc3c2=O)cc1OC (stereo not given)
-16%	COc1ccc(CNc2nccs2)cc1OC
6%	C=CCNC(=O)COC(=O)c1ccc(Cl)c(S(N)(=O)=O)c1
-24%	O=C(c1cccc(S(=O)(=O)N2CCN(c3ccc(F)cc3)CC2)c1)N1CCCC(C(F)(F)F)C1 (stereo not given)

Carrying on:
VDR inhibitor	Molecule
-24%	Cc1ccc2cc3c(NS(=O)(=O)c4cccc5nonc45)nn(CC(C)C)c3nc2c1
-9%	COc1cc2c(cc1OC)C(C(=O)NCc1ccco1)C(c1cccs1)N(C)C2=O (stereo not given)
4%	NS(=O)(=O)c1ccc(NS(=O)(=O)c2ccc(NC(=O)c3ccc(-c4ccccc4)cc3)cc2)cc1
16%	CCCC12CN(C(=O)c3ccc(OC)cc3)CC(C)(CN(C(=O)c3ccc(OC)cc3)C1)C2=O
9%	Cc1ccccc1NC(C)C(=O)N/N=C/c1c[nH]c2ccccc12 (stereo not given)
-2%	c1cnc2cc(-c3ccsc3)ncc2c1
-8%	COc1ccc(S(=O)(=O)Nc2cc3c4c(c2)CCN4C(=O)CC3)cc1OC
-5%	C/C(=N\NC(=O)c1cccc(S(=O)(=O)Nc2ccccc2Cl)c1)c1ccco1
-7%	CCC(C)N=C1CC(C)(C)CC(=O)/C1=C(/O)Cc1ccccc1 (stereo not given)
-4%	C=C(C)Cn1c(SCC(=O)c2ccccc2)nc2sc3c(c2c1=O)CCCC3

Continued.
VDR inhibitor	Molecule
-5%	Cc1ccc(/C(O)=C2\C(=O)C(=O)N(c3cc(C)on3)C2c2cccc(Br)c2)cc1 (stereo not given)
-7%	O=C1OCc2cc(NC(=O)C34CC5CC(CC(C5)C3)C4)ccc21
-17%	Cc1ccc(C2CC(=O)NC(SCCC(C)C)=C2C#N)cc1 (stereo not given)
1%	FC(F)(F)c1ccc2c3n(nc2c1)CCN=C3c1ccc(Cl)cc1
-6%	CC(C)CCN1CC(C(=O)NCCC2=CCCCC2)CC1=O (stereo not given)
-16%	COC(=O)c1ccc(CC(=O)c2nc3ccccc3s2)cc1
-14%	CCN(CC)C(=O)Cn1nnc(-c2ccc(C)o2)n1
-2%	COc1ccc(CNC(=O)c2ccncc2)cc1
25%	CCOC(=O)N1CCN(c2nc(-c3ccc(F)cc3)cs2)CC1
-10%	Cc1cc(NC(=O)Nc2cc(F)ccc2C)n(C)n1

(more compounds)
VDR inhibitor	Molecule
?	COc1ccc(NC(=O)CSc2nnc(-c3ccccc3C)n2N)cc1
-20%	CCOC(=O)NN1C(=O)c2ccccc2NC1c1ccccc1O (stereo not given)
-11%	Cc1ccc(S(=O)(=O)NN=C2CCC(C(C)(C)C)CC2)cc1[N+](=O)[O-] (stereo not given)
3%	CC(C)(C)NC(=O)C(=O)NN=C1CCCCCCC1
-7%	CCn1c(=NC(=O)c2ccc(N3C(=O)CCC3=O)cc2)sc2c(OC)ccc(OC)c21
-15%	COc1cc(CNc2ccc(O)cc2)cc(Br)c1OCc1ccccc1
1%	Cc1cnc(CNc2cc(-c3cccnc3)ncn2)cn1
-9%	Cc1cc(C)c(S(=O)(=O)c2ccccc2)c(=O)[nH]1
-6%	O=C(Nc1ccc(NC(=O)C2CC2)nc1)c1ccncc1
-24%	CCOC(=O)NNc1ccccc1

Remaining list, next part:
VDR inhibitor	Molecule
4%	O=C(Nc1cccc(C(F)(F)F)c1)c1cnccn1
45µM*	C#CCOc1ccc(/C=C2/C(=O)ON=C2C)cc1Cl
3%	O=C(NCc1ccccn1)C1CCCN(S(=O)(=O)c2cc(Cl)ccc2Cl)C1 (stereo not given)
-10%	CC(C(=O)Nc1ccc(S(N)(=O)=O)cc1)N1CCc2ccccc21 (stereo not given)
-4%	O=c1oc(-c2cccc(Cl)c2)nc2c1cnn2-c1ccccc1
-7%	COc1ccc(-c2csc(N3CCN(C(=O)c4ccccc4)CC3)n2)cc1
-10%	CCOc1ccc(C(=O)Nc2ccccc2-c2ccccc2)cc1Cl
-3%	COC(=O)N1CCC2(CCCN(C(=O)Nc3cccc(C#N)c3)C2)CC1
-1%	O=C1C=C(c2cccs2)CC(c2cccs2)C1n1cnc([N+](=O)[O-])c1 (stereo not given)
?	O=C(O)c1cccc2cccc(-c3c4ccc(=O)c(O)c-4oc4c(O)c(O)ccc34)c12

Following part:
VDR inhibitor	Molecule
-18%	Cc1c(C(=O)N(CCO)Cc2ccccc2)oc2c(F)cccc12
-20%	COc1ccc(N=C2CCCN2CC(N)=O)cc1
-13%	CCN1C(=O)[C@@H]2[C@@H](c3ccc(-c4ccc(F)cc4)cc3)N3CCCC[C@@]3(C(=O)OC)[C@@H]2C1=O
11%	CC(=O)c1c(C)cc(C)c(CSc2nc(C)cc(=O)[nH]2)c1C
12%	Cc1ccc2cc(S(=O)(=O)NCCC(=O)O)ccc2c1
0%	COc1ccc([C@H]2CC(=O)C=C(c3ccc(Oc4ccccc4)cc3)C2)cc1OC
-11%	COc1ccc(C(=O)CSc2nccn2C)cc1
-5%&4%	CC1OC(OC2C(CO)OC(OC3C(CO)OC(O)C(O)C3O)C(O)C2O)C(O)C(O)C1NC1C=C(CO)C(O)C(O)C1O (stereo not given)
15%	CN(C)c1ncc(S(=O)(=O)c2ccccc2)c(-c2ccccc2Cl)n1
-2%	O=S(=O)(Nc1nc2ccccc2s1)c1ccc(Br)s1

The list goes on.
VDR inhibitor	Molecule
-21%	NNC(=O)c1ccc2nc(-c3ccc(Br)cc3)cn2c1
-2%	CN(c1ccc(C(=O)NCCSCc2ccco2)cc1)S(C)(=O)=O
-19%	Cc1c(C(=O)NCCc2ccccc2)oc2ccccc12
-24%	COC(=O)CCN1CCc2cc(N=Nc3ccc([N+](=O)[O-])cc3)ccc21
7%	CCOC(=O)N1CCN(Cc2nc(CC3CC3)no2)CC1
14%	COc1ccc(NC(=O)CSc2nncn3c2cc2oc(C)cc23)cc1OC
13%	COc1cc2nc(NC(=O)c3ccc(F)cc3Cl)sc(=O)c2cc1OC
-13%	CC(=O)c1cccc(NC(=O)CC2S/C(=N/N=C/c3ccccc3)NC2=O)c1 (stereo not given)
-16%	Cc1ccc(NC(=O)CC2S/C(=N/N=C3/NC(=O)CS3)NC2=O)cc1 (stereo not given)
4%	O=C(CNC(=O)Cn1ccc2ccccc2c1=O)NCCCN1CCCCCC1

Going on with the list:
VDR inhibitor	Molecule
-3%	COCCn1cnc2c1c(=O)[nH]c(=O)n2Cc1ccccc1
0%	COc1ccc(C)cc1NC(=O)C1CCN(S(=O)(=O)c2ccc3[nH]c(=O)oc3c2)CC1
8%	C=CCC(C(=O)OC)(C(=O)OC)c1ccccc1[N+](=O)[O-]
16%	CCOc1ccc(-n2nc3ccc(NC(=O)c4ccc5c(c4)OCCO5)cc3n2)cc1
-6%	Cc1ccc(NC(=O)CSc2nnc(-c3cc(C)on3)o2)cc1
22%	Cc1ccc(C)c(Nc2nn3c(=O)c4ccc(C(=O)NCCc5ccccc5)cc4nc3s2)c1
-4%	CCc1c(C)nc2c(-c3ccccc3)c(C)[nH]n2c1=O
-8%	COc1cccc(NC(=O)CCC2CCN(C(=O)C3CC=CCC3)CC2)c1 (stereo not given)
3%	CC(C)(C)OC(=O)C[C@@H]1C/C=C\C[C@@H](CC(=O)N[C@H](CO)Cc2ccccc2)C(=O)N2CCC[C@H]2COC1=O
-2%	C[C@@H](C(=O)Nc1ccc2c(c1)OCCO2)n1nnc2ccccc2c1=O

Carrying on:
VDR inhibitor	Molecule
-23%	CC(C)C[C@H]1CN=C(Nc2ccccc2)N1CCCC1CCCC1
4%	COC(=O)C1=C(C)N(Cc2ccc(OC)c(OC)c2)C(=O)C1
1%	Cc1ccc2cc(/C=N/NC(=O)c3ccc(F)cc3)c(Cl)nc2c1
7%	Cc1ccc(CNC(=O)CCc2c(C)nc3nc(CNC(=O)OC(C)(C)C)nn3c2C)cc1
-1%	O=C(Nc1cccc2ccccc12)N1CCN(c2ccc(F)cc2)CC1
12%	CN(C)CCCn1c(NCc2ccc3c(c2)OCO3)nc2ccccc21
10%	COc1cc(CNCCCN2CCOCC2)c(Br)cc1OC(C)C
-3%	C/C(=N\NC(N)=S)c1cccnc1
15%	Cc1cc(C)n2nc(C(=O)N/N=C/C=C/c3ccccc3)nc2n1
-10%	CCOc1ccc(CCNC(=O)Cc2ccc(NC3=NC4CS(=O)(=O)CC4S3)cc2)cc1OCC (stereo not given)

Further records follow:
VDR inhibitor	Molecule
3%	CN(C)c1ccc(CNC(=O)CN2C(=O)CSc3ccc(S(=O)(=O)N4CCCC4)cc32)cc1
?	CCOC(=O)c1c(N)sc(C)c1-c1ccccc1
-19%	O=C(NC(=S)N1CCCCC1c1cccnc1)c1ccccc1 (stereo not given)
-9%	COc1ccc(-n2nnnc2SCC(=O)Nc2nnn(C)n2)cc1
-18%	CC(=O)OC1CC[C@@]2(C)C(CCC3C2CC(=O)[C@@]2(C)C3CC3CC(C)=CC(=O)C32)C1 (stereo not given in full)
-8%	O=[N+]([O-])c1cccc(C2Nc3cccc4cccc(c34)N2)c1
-7%	CC(=O)OCC1OC(c2ccccc2)C(OC(C)=O)C(OC(C)=O)C1OC(C)=O (stereo not given)
-15%	CCOC(=O)C(=O)C1C(=O)Nc2ccccc21 (stereo not given)
5%	Cn1c(CCNC(=O)C(C)(C)C)nc2ccccc21
-3%	CC(C)N1C(=O)CCC1C(=O)O (stereo not given)

(further entries)
VDR inhibitor	Molecule
1%	O=C(CSc1nnc(CNC(=O)c2ccco2)o1)Nc1cccc(Cl)c1
15%	Cc1cc(NC(=O)NCc2ccco2)ccc1NC(=O)NCc1ccco1
-18%	CC(C)CCc1noc(CN(C)CCC2CCOCC2)n1
-6%&-14%	CC1=C[C@H](C)[C@H](c2c(F)cccc2Cl)CC1=O
19%	O=C(c1cc2cc(Cl)ccc2o1)N1CCCC1
?	CCc1cccc(C)c1NC(=O)CCCn1c(=O)c2cccn2c2cccnc21
-4%	COc1cc(C(=O)N2CCN(C(=O)c3ccco3)CC2)c([N+](=O)[O-])cc1OC
-4%	O=C(Nc1cccc(S(=O)(=O)N2CCCCC2)c1)[C@@H]1CCCN1S(=O)(=O)c1ccccc1C(F)(F)F
-2%	CC(C)NC1CCC(Nc2ccnc3cc(Cl)ccc23)CC1 (stereo not given)
2%	COc1ccc(N2CCN(Cc3nnnn3C3CCCCC3)CC2)cc1

Other entries.
VDR inhibitor	Molecule
-19%	Cc1ccc(-c2nn(C)c(=O)c3ccccc23)cc1CNC(=O)/C=C/c1ccccc1
-13%	Cn1c(SCC#N)nnc1-c1ccc2c(c1)OCO2
5%	COc1cc(S(=O)(=O)NCc2ccccc2)ccc1F
0%	O=C(NC(=S)N(CC1CCC1)CC1CCCO1)c1cccc([N+](=O)[O-])c1 (stereo not given)
-6%	COCCCn1nnnc1SCC(=O)N1CCN(C(=O)c2ccco2)CC1
11%	CCOc1ccccc1NC(=O)C(NCCN(C)C)c1ccccc1 (stereo not given)
-21%	CCC1C(=O)CC2CCN3C(=O)CCC1C23 (stereo not given)
-18%	Cc1c(N=C/C=C/c2ccccc2)cnn1C
-18%	C=CCSC1=NNC(c2ccc(C(C)(C)C)cc2)=NN1
5%	CCOc1ccc(C(=O)Nc2ccc3c(c2)N(C(C)=O)CCC3)cc1OCC

Shown as a hit in VDR inhibitor, of those listed so far:
VDR inhibitor	Molecule
45µM*	C#CCOc1ccc(/C=C2/C(=O)ON=C2C)cc1Cl

The list goes on.
VDR inhibitor	Molecule
-5%	O=S(=O)(NC1=NCCCCC1)c1ccc(F)cc1
-17%	CCN(CC)S(=O)(=O)c1ccc(OC(C)C)c(NC(=O)C2=COCCO2)c1
-18%	Cc1c(C(=O)N2CC3(CC(c4cccc(NC(=O)[C@H]5CCC(=O)N5)c4)=NO3)C[C@@H]2C(N)=O)cc([N+](=O)[O-])cc1[N+](=O)[O-] (stereo not given in full)
9%	Cc1ccc(-c2nn(Cc3ccccc3)cc2C(=O)NCC2CCCO2)cc1 (stereo not given)
